Assay outcomes: PubChem, ICCB-Longwood Screening Facility, Harvard Medical School
Sa growth inh = blocks Staphylococcus aureus growth; relative growth, % (test concentration not listed); S. aureus RN4220 growth, OD600, 20 h, 42 °C; active compounds read low; 170,000 tested, 0.53% active;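 active = growth at 42 °C up to 50% and 20 or more points under that at 30 °C, or under 10% at both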;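 note: 300 nL library stock went into each well; scaled to the means of positive and negative controls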
GIV-Gai inh = GIV-Galpha-i interaction inhibition | Galpha-i3/FITC-GIV peptide fluorescence polarization, 90 min; active compounds read low; scaled: aluminum fluoride 0%, vehicle 100% | percent of control (FP), % (concentration not given with the values) | 210,000 tested, 0.42% active;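 active = replicate mean at 85% of control or lower, very high polarization wells dropped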;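 note: wells of about 15 µL received 100 nL stock; the first replicate is given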
Target sequence (P08753 whole entry, looked up): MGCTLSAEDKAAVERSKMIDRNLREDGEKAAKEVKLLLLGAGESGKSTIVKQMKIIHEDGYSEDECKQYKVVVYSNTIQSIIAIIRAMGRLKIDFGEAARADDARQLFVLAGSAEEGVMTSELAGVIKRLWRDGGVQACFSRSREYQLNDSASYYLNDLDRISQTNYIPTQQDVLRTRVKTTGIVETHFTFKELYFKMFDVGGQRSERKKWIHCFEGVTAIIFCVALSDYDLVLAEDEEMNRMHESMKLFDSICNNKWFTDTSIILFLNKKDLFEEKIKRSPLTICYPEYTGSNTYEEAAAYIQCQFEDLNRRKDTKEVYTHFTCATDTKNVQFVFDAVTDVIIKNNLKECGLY
HCMV NEC inh = cytomegalovirus nuclear egress complex inhibition. 190,000 tested, 0.15% active. inhibition, % (test concentration not listed). HTRF UL50-UL53 interaction, normalized percent inhibition;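 active = both replicates at 50% or more, plus weaker picks with an unusually low signal ratio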;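 note: stock transfer was 100 nL into about 20 µL; 0% = negative control wells and 100% = wells with untagged competitor protein; inactives centre near -12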
Sa growth inh second temp = recorded beside Sa growth inh, whose call it bears; relative growth, %; measured here: growth at 30 °C;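 optical density after 20 h as mean of two plates; 100% = untreated growth and lower means inhibition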
Numbers without * were called inactive; · = not tested or not shown; & = joins results of further samples.

entry	canonical_smiles	Sa growth inh	Sa growth inh second temp
1	Cc1ccc(C2N(c3ccccc3)CCN2c2ccccc2)s1	89.3	86.4
2	COC(=O)CSc1cc(Cl)nc2ccc(C)cc12	127.0	89.3
3	CCNc1nc(N2CCCC2)nc(N2CCC(Cc3ccccc3)CC2)n1	76.1	90.2
4	O=C(CSc1nc2ccccc2c(=O)n1C1CCCCC1)NCc1ccco1	90.7	86.0
5	COc1ccc(NC(=O)CN2C(=O)COc3ccc(C(C)(C)C)cc32)cc1NC(=O)c1ccccc1	·	·
6	O=C(COC(=O)C1CC(=O)N(CCc2ccccc2)C1)Nc1cccnc1Cl (stereo not drawn)	78.7	94.9
7	CCN(CC)C(=O)COc1ccc(C2C(C#N)=C(N)Oc3n[nH]c(COC)c32)cc1OC (stereo not drawn)	·	·
8	COc1ccccc1CNC(=O)CCC(=O)N1CCSc2ncccc21	·	·

entry	GIV-Gai inh	HCMV NEC inh
1	·	-14.0
2	99.4	·
3	99.1	0.0
4	104.2	-26.9
5	101.9	-8.6
6	·	-11.6
7	99.5	-28.3
8	106.2	-6.2

Next part:
entry	canonical_smiles	Sa growth inh	Sa growth inh second temp
9	Cc1ccc(N2C(=O)c3nccnc3C2=O)c(C)c1	·	·
10	CC(C)c1ccc(Nc2cc(C(=O)NCCCN(C)Cc3ccccc3)c3ccccc3n2)cc1	113.7	104.5
11	COc1ccccc1C(=O)NCCCn1cc(Br)c(C)n1	109.6	98.2
12	CCNC(=O)C1CCN(c2ccc(F)cc2)C1=O (stereo not drawn)	·	·
13	CCn1c(Cn2cccn2)nc2cc(NC(=O)c3ccc(C)cc3)ccc21	·	·
14	COc1ccc(C(=O)NCCC2=CCCCC2)cc1	88.7	96.3
15	CC(C)(C)c1ccc(-c2cc(=O)c3cc(NC(=O)c4cccnc4)ccc3o2)cc1	·	·
16	O=C(NCc1ccccc1)C1CCCN(S(=O)(=O)c2cccc3nsnc23)C1 (stereo not drawn)	106.1	88.6

entry	GIV-Gai inh	HCMV NEC inh
9	99.3	-9.4
10	107.6	·
11	102.1	3.6
12	102.2	-15.9
13	103.2	-13.1
14	·	3.0
15	100.5	-22.3
16	100.1	-106.5

(cont.)
entry	canonical_smiles	Sa growth inh	Sa growth inh second temp
17	Cc1onc(-c2ccccc2Cl)c1C(=O)C(C#N)c1ccccn1 (stereo not drawn)	112.3	93.6
18	c1csc(-c2noc(CSc3ccc4ccccc4c3)n2)c1	115.4	80.8
19	CN(C)C(CNC(=O)c1cc(-c2ccc(Br)cc2)on1)c1ccccc1 (stereo not drawn)	·	·
20	Cc1ccc(S(=O)(=O)NCc2ccc(C(=O)NC3CCC(C)CC3)cc2)cc1 (stereo not drawn)	115.4	81.5
21	Cc1cccc(NC(=O)C2CCCN2S(=O)(=O)c2ccc3nc(-c4ccccc4)[nH]c3c2)c1 (stereo not drawn)	103.1	75.1
22	CCCNC(=O)Cn1c(=O)n(CC2CCC(C(=O)NC)CC2)c(=O)c2sccc21 (stereo not drawn)	91.8	86.5
23	Cc1[nH]c(-c2ccc(F)cc2)cc1C(=O)N1CCCC(C)C1 (stereo not drawn)	98.9	78.6
24	COCC(C)NC(=O)NC1CC(=O)N(c2ccc(F)cc2)C1 (stereo not drawn)	91.5	97.7

entry	GIV-Gai inh	HCMV NEC inh
17	·	-2.3
18	·	-10.0
19	101.6	-18.0
20	102.5	·
21	105.1	·
22	99.0	·
23	103.1	11.3
24	99.9	-0.3

Following part:
entry	canonical_smiles	Sa growth inh	Sa growth inh second temp
25	CC1=C(C(=O)OC2CCCC2)C(c2cc3c(cc2Br)OCO3)C2=C(CC(C)(C)CC2=O)N1 (stereo not drawn)	·	·
26	CCN(CC)S(=O)(=O)c1ccc(N(C)Cc2ccc(C(F)(F)F)cc2)nc1	105.7	92.0
27	CCc1ccc(NC(=O)c2sc(-n3nc(C)c(Cc4ccc5c(c4)OCO5)c3C)nc2C)cc1	101.6	92.7
28	O=C1NCCCCC1NS(=O)(=O)c1ccc(-c2ccccn2)s1 (stereo not drawn)	97.6	89.5
29	CCC(=O)N1CC(C)C(=O)N(C(=O)CC)c2ccccc21 (stereo not drawn)	92.3	86.3
30	Cc1ccc(-c2nn(-c3ccccc3)cc2CCC(=O)NCc2ccc(Cl)cc2)cc1	·	·
31	CN(C)c1ccc(C(CNC(=O)c2cc(-c3ccc4c(c3)CCCC4)on2)N(C)C)cc1 (stereo not drawn)	·	·
32	CS(=O)(=O)NCC(c1cccnc1)N1CCN(Cc2ccccc2)CC1 (stereo not drawn)	85.8	87.4

entry	GIV-Gai inh	HCMV NEC inh
25	104.1	-5.9
26	·	-14.2
27	109.3	-7.1
28	104.2	-32.4
29	97.0	0.2
30	100.4	21.9
31	104.8	-17.8
32	102.0	·

Among those listed so far, two have a tert-butyl group.
entry	canonical_smiles	Sa growth inh	Sa growth inh second temp
5	COc1ccc(NC(=O)CN2C(=O)COc3ccc(C(C)(C)C)cc32)cc1NC(=O)c1ccccc1	·	·
15	CC(C)(C)c1ccc(-c2cc(=O)c3cc(NC(=O)c4cccnc4)ccc3o2)cc1	·	·

entry	GIV-Gai inh	HCMV NEC inh
5	101.9	-8.6
15	100.5	-22.3

More records
entry	canonical_smiles	Sa growth inh	Sa growth inh second temp
33	CC(C(=O)N1CCOCC1)C1SC(=O)NC1=O (stereo not drawn)	84.8	85.7
34	CCN1CCN(c2ccc(NC(=O)[C@H](Cc3ccccc3)N3Cc4ccccc4C3=O)cc2)CC1	99.9	98.1
35	COc1cccc(/C=N/NC=O)c1	91.3	93.9
36	O=C1OC(c2ccccc2)OC(=O)C1=Cc1cccs1 (stereo not drawn)	114.2	86.4
37	O=C(CCn1cnc2cc(S(=O)(=O)N3CCCC3)ccc21)NCc1cccnc1	·	·
38	Cc1ccc(N2NC3(CC(C)CC(C)(C)C3)NC2=S)cc1C (stereo not drawn)	89.2	89.7
39	O=C(NCC1CCCO1)c1ccccn1 (stereo not drawn)	105.4	104.5
40	CCS(=O)(=O)N1CCC(N2CCN(Cc3ccc(F)cc3)C(=O)C2=O)CC1	·	·

entry	GIV-Gai inh	HCMV NEC inh
33	96.1	-17.4
34	115.4	14.4
35	·	-8.5
36	94.7	·
37	105.3	-34.5
38	·	-7.6
39	106.5	-6.8
40	105.4	-7.0

Given bar-delimited: entries from further up.
entry | smiles | Sa growth inh | Sa growth inh second temp | GIV-Gai inh | HCMV NEC inh
34 | CCN1CCN(c2ccc(NC(=O)[C@H](Cc3ccccc3)N3Cc4ccccc4C3=O)cc2)CC1 | 99.9 | 98.1 | 115.4 | 14.4
35 | COc1cccc(/C=N/NC=O)c1 | 91.3 | 93.9 | · | -8.5

(list continues)
entry	canonical_smiles	Sa growth inh	Sa growth inh second temp
41	OCCOc1nc(N2CCOCC2)nc(N2CCOCC2)n1	104.0	97.1
42	CCOC(=O)c1cnc2c(C)c(Cl)ccc2c1Nc1ccc(N2CCOCC2)cc1	97.9	90.4
43	Cc1cccc(-n2c(C)nc3cc(C(=O)NCCN4CCOCC4)ccc32)c1	92.3	73.2
44	O=C(CC(C(=O)c1ccccc1)n1cccn1)c1ccccc1 (stereo not drawn)	94.0	91.1
45	Cc1cc(C)c2c(-n3cccc3)nn(CCCC(=O)Nc3ccccc3Cl)c2n1	·	·
46	COc1cc(OC)c(OC)cc1/C=C/c1nc2cc3ccccc3cc2c(=O)n1-c1ccccc1Br	124.5	87.9
47	Cc1cccc(N2CCN(C(=O)CN3C(=O)/C(=C\c4cccc(F)c4)Oc4ccccc43)CC2)c1C	97.9	82.5
48	O=C(CCc1nc2sc3c(c2c(=O)[nH]1)CCCCC3)Nc1ccc(Cl)cc1	·	·

entry	GIV-Gai inh	HCMV NEC inh
41	104.6	-32.2
42	103.6	6.7
43	105.3	·
44	·	5.7
45	102.7	-17.7
46	143.2	·
47	105.8	·
48	103.5	-26.0

Next section.
entry	canonical_smiles	Sa growth inh	Sa growth inh second temp
49	CCCN1C(=O)/C(=C/c2ccc(O)c(OC)c2)SC1=S	73.7	55.5
50	CCC(C(=O)NC1CCCC1)n1c(SCc2cccc(F)c2)nc2ccncc21 (stereo not drawn)	124.3	95.2
51	O=C(c1cccc(I)c1)N1CCN(c2ccccc2O)CC1	113.0	80.2
52	O=C(CSc1nc2ccccc2[nH]1)N(c1ccccn1)c1ccccn1	74.6	94.0
53	Cc1cc(C(F)(F)F)nn1CC(=O)Nc1ccc(CC#N)cc1	82.2	79.3
54	Oc1c(Cl)cc(Cl)cc1C1Nc2cc(C(F)(F)F)ccc2-n2cccc21 (stereo not drawn)	5.2*	6.8*
55	N#Cc1ccccc1NC(=O)c1coc2ccccc2c1=O	96.1	92.4
56	COc1nnc(-c2ccc(N3CCCCC3)c(NC(=O)c3ccc(Cl)cc3)c2)c2ccccc12	103.9	104.1

entry	GIV-Gai inh	HCMV NEC inh
49	-34.0*	-27.9
50	98.1	5.5
51	·	-29.0
52	·	-24.3
53	·	-11.5
54	93.8	4.1
55	103.7	1.6
56	115.7	4.8

Compounds 53 to 56, reprinted for reference:
entry	canonical_smiles	Sa growth inh	Sa growth inh second temp
53	Cc1cc(C(F)(F)F)nn1CC(=O)Nc1ccc(CC#N)cc1	82.2	79.3
54	Oc1c(Cl)cc(Cl)cc1C1Nc2cc(C(F)(F)F)ccc2-n2cccc21 (stereo not drawn)	5.2*	6.8*
55	N#Cc1ccccc1NC(=O)c1coc2ccccc2c1=O	96.1	92.4
56	COc1nnc(-c2ccc(N3CCCCC3)c(NC(=O)c3ccc(Cl)cc3)c2)c2ccccc12	103.9	104.1

entry	GIV-Gai inh	HCMV NEC inh
53	·	-11.5
54	93.8	4.1
55	103.7	1.6
56	115.7	4.8

(more compounds)
entry	canonical_smiles	Sa growth inh	Sa growth inh second temp
57	O=C(CSc1nc(-c2ccccc2)cc(=O)[nH]1)c1ccccc1	115.2	91.0
58	COc1ccccc1N1CCN(C(=O)Cn2c(=O)nc(-c3ccccc3)c3ccccc32)CC1	94.1	86.7
59	O=c1oc2cc(OCc3ccc(F)cc3)ccc2cc1-c1nc2ccccc2s1	·	·
60	CC(=O)N1Cc2ccccc2C(C)CC12CCCC2 (stereo not drawn)	107.8	111.6
61	CCOC(=O)c1c(NC(=O)C(C)Sc2nncn2C)sc2c1CCCC2 (stereo not drawn)	74.7	71.0
62	CC(=O)O/N=C(\N)c1ncon1	92.6	91.0
63	CCOC(=O)c1c(CN2CCCCC2)n(-c2ccccc2)c2cc(Br)c(OC)cc12	107.4	92.7
64	CCOC(=O)c1c(C)[nH]c(CN(Cc2ccc(C)cc2)S(=O)(=O)c2c(C)noc2C)c1C	·	·

entry	GIV-Gai inh	HCMV NEC inh
57	100.5	2.7
58	99.7	·
59	165.3	-16.2
60	105.7	9.1
61	·	-37.8
62	102.0	-18.6
63	·	-6.7
64	101.6	-34.2

More entries.
entry	canonical_smiles	Sa growth inh	Sa growth inh second temp
65	CCc1ccc(NC(=O)Cn2c(C(=O)OC)cc3occc32)cc1	107.4	100.4
66	Cc1cc(C2C(=O)CC(=O)CC2c2ccccc2)on1 (stereo not drawn)	106.6	84.8
67	COc1ccccc1CC(=O)Nc1ccc2nc(Nc3cccc(Cl)c3)cc(C)c2c1	113.1	102.7
68	CCC(Sc1nnnn1-c1ccccc1)C(=O)Nc1ccc(S(N)(=O)=O)cc1 (stereo not drawn)	75.3	72.1
69	CC(C)COc1ccc(C(=O)Nc2cccc(-c3nc4ccccc4[nH]3)c2)cc1	98.2	81.1
70	CN(C)c1ccc(C(=O)N2CCN(c3ccccc3)CC2)cc1S(=O)(=O)N(C)C	·	·
71	Cc1ccc(-n2c(SCC(=O)Nc3ccc4c(c3)OCCO4)nc3c([nH]c4ccccc43)c2=O)cc1	121.5	102.5
72	O=C(CSCc1cnn(-c2ccccc2)c1-n1cccc1)NCc1ccccc1F	84.8	83.3

entry	GIV-Gai inh	HCMV NEC inh
65	102.5	-2.1
66	·	-5.0
67	109.1	·
68	110.5	4.0
69	106.8	-64.3
70	103.8	-16.3
71	99.2	·
72	102.0	-5.4

The list goes on.
entry	canonical_smiles	Sa growth inh	Sa growth inh second temp
73	CCc1ccccc1-n1c(N)c(C(=O)OC)c2nc3ccccc3nc21	114.0	85.9
74	Clc1ccc(-c2noc3ncnc(NCCc4ccccc4)c23)cc1	79.3	87.8
75	CN1CCN(c2oc(-c3ccc(COc4ccc(Cl)cc4)o3)nc2C#N)CC1	100.2	86.4
76	COc1ccccc1N1CCN(S(=O)(=O)c2ccc3c(c2)C(C)(C)C(=O)N3C)CC1	·	·
77	COc1ccc(NC(=O)c2ccc3snnc3c2)cc1OC	98.3	87.6
78	Cc1ccc2oc(=O)c3cnn(CC(=O)N4CCN(c5ccccc5F)CC4)c3c2c1	97.3	85.6
79	O=C(Nc1ccc(Cl)cc1)c1ccc2c(c1)N(Cc1ccccc1)CCS2	111.7	85.8
80	COc1cc(Cl)c(C)cc1NC(=O)CN1C(=O)C2CC=CCC2C1=O (stereo not drawn)	102.9	93.5

entry	GIV-Gai inh	HCMV NEC inh
73	102.4	-34.7
74	101.2	·
75	96.6	-49.9
76	98.6	1.8
77	105.8	-42.4
78	99.5	-29.0
79	104.9&103.3	-24.0&-29.6
80	·	-1.0

Next part
entry	canonical_smiles	Sa growth inh	Sa growth inh second temp
81	CC(C)Cn1cc(NC(=O)NCC2CCCO2)c2ccccc2c1=O (stereo not drawn)	106.0	86.1
82	Cc1ccc(NC(=O)c2ccc3oc(=O)n(C)c3c2)cc1	·	·
83	Cc1cc(Cl)nc(NN)c1C#N	99.3	82.3
84	O=C(O)COCC(=O)NC1CCN(Cc2c(F)cccc2Cl)CC1	109.8	97.9

entry	GIV-Gai inh	HCMV NEC inh
81	99.9&95.9	-34.2&1.6
82	95.5	-31.2
83	·	-10.8
84	98.8	13.4
